Measles inh = inhibitors of measles virus growth in infected cells; infected Vero cells, GFP fluorescence, 64 h; stronger effect = lower value; z-score (no concentration beside the values); 33,000 tested, 0.1% active; AID 745;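 active = z-score under -3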;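 note: score is relative to mean and SD of the compound wells of a plate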
* = called active by the depositor. This is a subset (hit frequency here may not be typical).

Measles inh,molecule
-1.02,Cc1cccc(OCc2nc(-c3ccc([N+](=O)[O-])cc3)no2)c1C
0.03,S=C1NCN(CCc2ccccc2)CN1CCc1ccccc1
1.64,COC(=O)CSc1nnc(CNC(=O)c2cccc(F)c2)n1C
0.23,CCOc1ccc(NC(=O)Cn2c(=O)n(CCc3ccccc3)c(=O)c3c4c(sc32)CCCC4)cc1
-0.02,O=C(CN1C2=NCCCN2c2ccccc21)c1ccc2c(c1)OCO2
0.35,Oc1ccc2oc(=S)sc2c1
1.2,COc1cccc(-n2ccnc2SCC(=O)Nc2nccs2)c1
-0.46,O=C1c2ccc(C34CC5CC(CC(C5)C3)C4)cc2C(=O)N1c1cccc(O)c1
-0.58,CCOc1ccc(Nc2ncnc(N)c2[N+](=O)[O-])cc1
-0.73,COc1ccccc1N1CCN(C(=O)C2C3C=CC(C3)C2C(=O)O)CC1 (stereo unspecified)
-0.63,Cc1ccc(-c2nc3ccccc3o2)cc1NC(=O)c1ccc([N+](=O)[O-])o1
0.11,CNC(=O)c1cc2cc(Br)ccc2oc1=O
-0.94,O=C(CSc1nc2[nH]ncc2c(=O)n1-c1ccccc1Br)NCc1ccccc1Cl
2.1,O=c1oc2ccc(Br)cc2cc1-c1nnc(-c2ccncc2)o1
0.41,COc1ccc(C)cc1NC(=O)c1cc2c(=O)oc3ccccc3c2s1

A stretch from the list above, for reference:
Measles inh,molecule
-1.02,Cc1cccc(OCc2nc(-c3ccc([N+](=O)[O-])cc3)no2)c1C
0.03,S=C1NCN(CCc2ccccc2)CN1CCc1ccccc1

More entries
Measles inh,molecule
0.49,CCOCCOC(=O)C1=C(C)NC2=C(C(=O)C(C(=O)OC)C(C)C2)C1c1ccc(C)c([N+](=O)[O-])c1 (stereo unspecified)
0.75,CCCN(C(=O)Cc1c(C(=O)O)[nH]c2ccc(Cl)cc12)c1cccc(C)c1
-2,O=C(Nc1cccc(Cl)c1)c1cccc(NC(=O)C(C(F)(F)F)C(F)(F)F)c1
1.33,COc1ccc2nc(NC(=O)c3ccc(S(=O)(=O)N(C)C)cc3)sc2c1
0.73,O=C(Nc1cccnc1)c1cc(-c2cccs2)nc2ccccc12
1.81,O=C(CSc1nc2ccccc2n1S(=O)(=O)c1ccccc1)Nc1ccc(Oc2ccccc2)cc1
-0.14,Cc1ccc2c(c1)N(CCCC(=O)NCC1CCCO1)C(=O)CO2 (stereo unspecified)
-0.63,CCOc1ccc2c(c1)C(=O)C(=O)N2C(C)=O
2.16,CCN1CCCC1CNC(=O)Cn1c(=O)c2ccccc2n(CC)c1=O (stereo unspecified)
0.08,CN(Cc1ccccc1)C(=O)c1cccn2c(=O)c3c4c(sc3nc12)CCCC4
0.57,CCOC(=O)C1=C(C)N=C2SCCC(=O)N2C1c1ccc(Cl)cc1 (stereo unspecified)
-0.47,CCOC(=O)C(Cc1ccccc1)C(=O)N(C1CCCCC1)C1CCCCC1 (stereo unspecified)
0.78,Cc1ccc2c(c1)Oc1cc([N+](=O)[O-])cc(Oc3ccccc3C)c1C(=O)N2
1.4,COc1ccc([N+](=O)[O-])cc1C1Oc2ccccc2C2CC(c3cccs3)=NN21 (stereo unspecified)
0.3,COC(=O)C1=C(C)N(CC2CCCO2)C(=O)C1 (stereo unspecified)

Next section
Measles inh,molecule
-1.07,CC1=C(C(=O)OC2CCCCC2)C(c2ccccc2OCc2ccccc2)C2=C(CCCC2=O)N1 (stereo unspecified)
-0.66,C=CCSc1nc2c(c(=O)[nH]c(=O)n2C)n1Cc1cccc(Br)c1
-0.78,O=c1oc2cc(OCc3ccccc3F)ccc2c2c1CCCC2
-1.75,Cn1c(=O)[nH]c(=O)c2c1nc1n2CC(O)CN1c1cccc2ccccc12 (stereo unspecified)
-0.56,O=c1nc(-c2ccccc2)cc(C(F)(F)F)[nH]1
0.62,O=S(=O)(c1ccccc1)c1nc(-c2ccccc2)oc1N1CCOCC1
-0.71,CCOC(=O)C1=C(C)NC2=C(C(=O)C(C(=O)OC)C(C)C2)C1c1ccccc1C(F)(F)F (stereo unspecified)
-0.49,CCOC(=O)c1sc(NC(=O)c2ccc(C(C)(C)C)cc2)nc1-c1ccccc1
-1.78,Cc1cccc(-c2nc3c(cnn3-c3ccccc3)c(=O)n2-c2ccc(F)cc2)c1
0.27,CCOc1ccc(C(=O)Nc2ccc(S(=O)(=O)Nc3nccs3)cc2)cc1
-1.16,CCOCCOC(=O)C1=C(C)NC2=C(C(=O)CCC2)C1c1coc2ccccc2c1=O (stereo unspecified)
1.81,O=C1c2ccccc2C(=O)c2c(NC(=O)c3sc4ccccc4c3Cl)cccc21
0.37,Cc1ccnc(NC2OC(=O)c3ccccc32)c1 (stereo unspecified)
0.96,CCCOc1cccc(C(=O)Nc2cccc(NC(=O)c3cccc(Cl)c3)c2)c1
1.02,O=C(c1ccccc1Br)N1N=C(c2ccccc2)CC1(O)C(F)(F)F (stereo unspecified)

Next part
Measles inh,molecule
-0.24,O=C(c1ccco1)N1CCN=C1SCc1ccc(C(F)(F)F)cc1
-0.18,O=C(NCc1cccs1)c1ccc2c(c1)N(Cc1ccccc1F)C(=O)c1ccccc1S2
-1.07,Cc1ccc(CNC(=O)c2cccn3c(=O)c4ccc(Cl)cc4nc23)o1
-0.04,Nc1cc(C(=O)O)ccc1NC(=O)c1ccccc1
-0.32,COc1cc(C2Nc3c(Cl)cccc3C3C=CCC32)cc(Br)c1OC (stereo unspecified)
0.13,CCOC(=O)c1cnc2c(ccc3ccccc32)c1Nc1ccc(Cl)cc1
-1.35,COc1ccc2nc(NC(=O)c3cc([N+](=O)[O-])ccc3Cl)sc2c1
-0.24,CCN(CC)S(=O)(=O)N1CCC(C(=O)NC2CCCC(C)C2C)CC1 (stereo unspecified)
-0.48,CCOC(=O)C1=C(C)NC2=C(C(=O)C(C(=O)OC)C(C)C2)C1c1cc(OC)c(OC)cc1OC (stereo unspecified)
-1.63,Cc1ccc(CNC(=O)c2cn(C3CCCC3)c(=O)c3c2c2ccccc2n3C)o1
1.19,Cc1ccc(C)c(NC(=O)c2cc3cc(Br)ccc3oc2=O)c1
-0.32,Cc1ccccc1COc1ccc2oc(C)c(C(=O)OC(C)C)c2c1
0.39,Cc1ccc(C(=O)NC2CC(C)(C)NC(C)(C)C2)cc1[N+](=O)[O-]
0.35,CC(C)CN(CC(C)C)S(=O)(=O)c1cccc2cccnc12
-0.47,CCOC(=O)c1c(NC(=O)c2cccc(Cl)c2)sc(C(=O)Nc2ccccc2C)c1C

Next section:
Measles inh,molecule
-0.28,O=C(NCCc1ccccc1)C1CCC(=O)N1C1CCCC1 (stereo unspecified)
0.11,COc1ccccc1N1CCN(C(=O)Cn2cnc3sc(C)c(C)c3c2=O)CC1
-1.24,Cc1cccc(CC(=O)N2CC(=O)Nc3ccc(C)cc3C2c2ccccc2)c1 (stereo unspecified)
-2.24,COc1cccc(C(=O)N2CC(=O)Nc3ccc(Br)cc3C2c2ccc(F)cc2)c1 (stereo unspecified)
-0.98,CS(=O)(=O)N1CCN(c2c(Cl)cccc2[N+](=O)[O-])CC1
-1.14,O=C(CC1N=C2c3ccccc3N=C(SCc3cccc([N+](=O)[O-])c3)N2C1=O)NCCc1ccccc1 (stereo unspecified)
0.19,CCOC(=O)c1c(NC(=O)c2ccc(Cl)cc2)sc2c1CC(C)(C)OC2
0.5,CC(=O)NC1=NN(C(C)=O)C(C(Cl)=Cc2ccc([N+](=O)[O-])cc2)S1 (stereo unspecified)
0.42,CC(C)CCNC(=O)C1CCC(=O)N1CCc1ccccc1 (stereo unspecified)
0.13,COc1cccc(CNCc2ccc3c(c2)OCO3)c1OC
-0.49,Cc1cccc(N2CCN(S(=O)(=O)c3ccc4c(c3)CCC(=O)N4)CC2)c1C
-0.29,O=C(O)C1CCN(S(=O)(=O)N2CCOCC2)CC1
-1.75,CCOc1cc(C2C(C(=O)OC3CCCC3)=C(C)NC3=C2C(=O)CCC3)ccc1OC(C)=O (stereo unspecified)
0.22,Cc1cc(Br)ccc1NC(=O)CCC(=O)Nc1ccc2nc(N3CCN(C)CC3)cc(C)c2c1
-1,COc1ccc2c(Cl)c(C(=O)NC3CCS(=O)(=O)C3)sc2c1 (stereo unspecified)

Another view of seven compounds above:
| smiles | Measles inh |
| --- | --- |
| COc1cc(C2Nc3c(Cl)cccc3C3C=CCC32)cc(Br)c1OC (stereo unspecified) | -0.32 |
| CCOC(=O)c1cnc2c(ccc3ccccc32)c1Nc1ccc(Cl)cc1 | 0.13 |
| COc1ccc2nc(NC(=O)c3cc([N+](=O)[O-])ccc3Cl)sc2c1 | -1.35 |
| CCN(CC)S(=O)(=O)N1CCC(C(=O)NC2CCCC(C)C2C)CC1 (stereo unspecified) | -0.24 |
| CCOC(=O)C1=C(C)NC2=C(C(=O)C(C(=O)OC)C(C)C2)C1c1cc(OC)c(OC)cc1OC (stereo unspecified) | -0.48 |
| Cc1ccc(CNC(=O)c2cn(C3CCCC3)c(=O)c3c2c2ccccc2n3C)o1 | -1.63 |
| Cc1ccc(C)c(NC(=O)c2cc3cc(Br)ccc3oc2=O)c1 | 1.19 |

Continuation:
Measles inh,molecule
0.31,CCOC(=O)c1c(NS(=O)(=O)c2ccccc2)sc(C)c1C
-0.3,CC1CCN(C(=O)N2c3ccccc3Sc3ccccc32)CC1
-0.16,c1coc(-c2nc3ccccn3c2Nc2ccc3c(c2)OCCO3)c1
0.01,CCOC(=O)C1=C(N)OC2=C(C(=O)CC(C)(C)C2)C1c1ccc(O)cc1 (stereo unspecified)
1.09,O=C(NC1(C(=O)NC2CCCCC2)CCCCC1)c1ccccn1
1.06,Cc1cc(C)c2c(N)c(C(=O)Nc3nnc(-c4ccccc4)s3)sc2n1
0.01,CN(C1CCCCC1)S(=O)(=O)c1ccc2c(c1)c(=O)c(C(=O)N1CCN(c3ccc([N+](=O)[O-])cc3)CC1)cn2C
-0.58,COc1ccc(-c2nc(SCC(=O)Nc3ccc(C)c(Cl)c3)c3c(=O)n(C)c(=O)n(C)c3n2)cc1
-0.46,Cc1ccccc1N1C(N)=NC(N)=NC1(C)C
-1.19,CNC(=O)C1C2C=CC3(CN(Cc4ccccc4Cl)C(=O)C13)O2 (stereo unspecified)
-1.14,Cc1nnc2c(NC3CCCCC3)nc3ccccc3n12
0.9,CC1=CC(C)(C)N(S(=O)(=O)c2ccc(Br)cc2)c2ccccc21
0.11,Cc1ccc2nsnc2c1NC(=O)c1cncc(Br)c1
0.03,COc1ccc(C(=O)C(OC(=O)c2ccncc2)c2ccccc2)cc1 (stereo unspecified)
-0.49,Cc1ccc(-n2c(SCC(=O)Nc3ccc(C)cc3C)nc3c(c2=O)SCC3)cc1

Exported with tabs: part of the list above
SMILES	Measles inh
CNC(=O)C1C2C=CC3(CN(Cc4ccccc4Cl)C(=O)C13)O2 (stereo unspecified)	-1.19
c1coc(-c2nc3ccccn3c2Nc2ccc3c(c2)OCCO3)c1	-0.16
CC1=CC(C)(C)N(S(=O)(=O)c2ccc(Br)cc2)c2ccccc21	0.9

New compounds follow.
Measles inh,molecule
0.15,O=C(Oc1ccc2oc(=O)sc2c1)c1cccc(Cl)c1
0.14,Cc1ccc(C(CC(=O)N2CCNCC2)c2ccccc2)c(O)c1C (stereo unspecified)
-0.11,O=C(O)c1cc([N+](=O)[O-])ccc1Sc1nnnn1-c1ccccc1
-0.45,Cc1ccc2nc(NC(=O)C3CCC(CNS(=O)(=O)c4ccc(Br)s4)CC3)sc2c1 (stereo unspecified)
0.07,COc1ccc(-c2nc(N)n(C(=O)c3ccccc3OC)n2)cc1
0.4,COC(=O)COc1cccc2c1ccc1c3c(c(=O)oc12)CCCC3
0.19,CC(C)n1c(=S)[nH]c2c1c(=O)[nH]c(=O)n2C
-0.19,O=C(CSc1ncnc2sc3c(c12)CCCC3)c1ccc(Cl)cc1
0.21,CCOC(=O)c1c(NC(=O)COc2ccccc2C)sc(C(C)=O)c1C
0.22,COCCOC(=O)C1=C(C)NC2=C(C(=O)CC(C)(C)C2)C1c1ccc(Cl)cc1 (stereo unspecified)
-0.93,Nc1nc(OCC(F)(F)F)cc(OCC(F)(F)F)n1
0.17,Cc1noc(C)c1S(=O)(=O)N1CCC(C(=O)NCCC2=CCCCC2)CC1
-0.74,CSCCC1(C(=O)O)NC(c2cc(I)ccc2O)C2C(=O)N(Cc3ccccc3)C(=O)C21 (stereo unspecified)
-1.34,CC(=O)c1ccc(N2CCN(S(=O)(=O)c3ccc4c(c3)CCN4C(C)=O)CC2)cc1
2.65,NC(=O)CN1CCN(C(=O)c2ccco2)CC1

(listing goes on)
Measles inh,molecule
1.58,COC(=O)C1=CN(CC2CCCO2)C=C(C(=O)OC)C1c1ccccc1Br (stereo unspecified)
-0.07,Cc1cccc(NC2=CC(=O)CC(C)(C)C2)c1
1.3,CCOC(=O)c1cc2c(=O)n3ccccc3nc2n(CCCOC)c1=NC(=O)c1ccc(Cl)cc1
-0.03,O=C(c1cc2nc(-c3ccc([N+](=O)[O-])cc3)cc(C(F)(F)F)n2n1)N1CCCc2ccccc21
1.34,O=C(CCCn1c2ccccc2c(=O)c2ccccc21)Nc1ccccc1F
0.96,COC(=O)c1ccc(NS(=O)(=O)c2ccc3ccccc3c2)cc1
-1.34,CC(SC1=NN2CCCC(=O)N=C2S1)c1ccccc1 (stereo unspecified)
-2.33,Cn1cnc2cc(NCc3cccc(Br)c3)ccc21
-0.58,CCOC(=O)CN1CC23C=CC(O2)C(C(=O)N2CCCC2)C3C1=O (stereo unspecified)
1.54,Cc1ccc(C=Nc2cccc(C#N)c2)cc1
-0.79,Cc1ccc(NC2=CC(=O)CC(C)(C)C2)cc1F
-0.21,COc1ccc(S(=O)(=O)N2CCSC2c2cc(OC)c(OC)cc2OC)cc1 (stereo unspecified)
-1.1,COc1ccc(-n2c(=S)[nH]c3cc(C(=O)NCc4ccc(Cl)cc4)ccc3c2=O)cc1OC
0.58,CCCCC1CCC(c2nc(-c3ccc(Br)cc3)no2)CC1 (stereo unspecified)
-0.96,Cc1cn2c3ccccc3n(CCN3CCCCC3)c2n1

Continuation.
Measles inh,molecule
-0.23,Cc1c(C(=O)Nc2cccc(Cl)c2)oc2ccc(S(=O)(=O)N3CC(C)CC(C)C3)cc12 (stereo unspecified)
-0.19,Cc1cc(C)n2nc(SCc3ccccc3)nc2n1
0.04,Cc1cc(I)ccc1NC(=O)c1ccc(C(C)(C)C)cc1
0.36,COCCNC(=O)c1cc(=O)[nH]c2ccc(S(=O)(=O)N3CCCC3)cc12
1.24,O=C(Nc1ccccc1Cl)c1cc2nc(-c3ccc4c(c3)OCO4)cc(C(F)(F)F)n2n1
